# Screens: PubChem BioAssay, Southern Research Institute
# Mtb H37Rv – Mycobacterium tuberculosis H37Rv growth inhibition, putative kinase inhibitor library, confirmatory dose response (AID 2842). 24,000 tested, 5.2% active. inhibition, % at 10 µg/mL, or IC90 in µg/mL where a hit was titrated. M. tuberculosis H37Rv growth inhibition; higher % means a stronger effect; some inactives read as strong as hits;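 active = confirmed in a dose series; about a fifth of its hits are not listed in these tables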;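 note: bacteria incubated one week before Alamar blue readout; 0% = bacteria only wells and 100% = bacteria with high antibiotic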
# * = called active by the depositor. The list is partial; count on the stated rates, not on these rows.
Compound	Mtb H37Rv
O=C(CSc1ccc(Cl)cc1)Nc1nnc(-c2cccc([N+](=O)[O-])c2)s1	19.4%
CCCOc1ccc(-c2csc(NC(=O)c3ccc4c(c3)OCCO4)n2)cc1	5.1%
N#Cc1c(SCc2nc3ccccc3[nH]2)nc(-c2ccc(Cl)cc2)c2c1CCCC2	13.3%
Cc1c(C)n(Cc2ccco2)c2ncnc(NC(C)C(=O)O)c12 (configuration not stated)	-7.0%
COc1ccc(OC)c(NC(=O)CSc2nnc(CCC(=O)O)c(=O)n2N)c1	-22.8%
Cc1ccc(Cn2c(N3CCN(Cc4cccc5ccccc45)CC3)nc3c2c(=O)[nH]c(=O)n3C)cc1	25.4µg/mL*
Cc1ccc(N2CC(NC(=O)NCc3cccnc3)CC2=O)cc1 (configuration not stated)	-7.4%
CNC(=O)c1ccsc1NC(=O)c1ccc(S(=O)(=O)N2CCCC(C)C2)cc1 (configuration not stated)	0.1%
O=C(Nc1c(C(=O)Nc2ccccc2F)oc2ccccc12)c1cccc(Cl)c1	38.9%
COCCn1c(SCC(=O)NCc2ccc3c(c2)OCO3)nnc1-c1c[nH]c2ccccc12	3.7%
Cc1cc(OC(=O)c2ccc(S(=O)(=O)N3CCOCC3)cc2)c([N+](=O)[O-])c(=O)[nH]1	1.5%
CCCCc1ccc(NC(=O)COc2ccc(C(=O)NCc3ccccc3)cc2)cc1	23.3%
Cc1csc(NC(=O)NC2CC(=O)N(c3ccc4c(c3)OCCO4)C2)n1 (configuration not stated)	11.8%
CCCC(=O)Nc1sc2c(c1C(N)=O)CCN(C(=O)OCC)C2	-4.7%
Nn1c(SCC(=O)Nc2cccc3ccccc23)nncc1=O	-16.7%
CCSc1nnc(NC(=O)CSc2nc3ccccc3o2)s1	1.1%
CCOC(=O)CC(=O)Cn1cnc2c(nnn2-c2cccc(C)c2)c1=O	3.2%
CCn1c(C)c(C)n2c3c(=O)n(CC(=O)c4ccc(F)cc4)c(=O)n(C)c3nc12	13.6%
NC(=O)c1c(NC(=O)c2cccc(Br)c2)sc2c1CCCCC2	13.0%
O=C(CSCC(=O)N1CCCc2ccccc21)Nc1nc(-c2cc3ccccc3oc2=O)cs1	41.0%

# (list continues)
Compound	Mtb H37Rv
Cc1ccc(NC(=O)CSC2CC(=O)N(c3ccc(C)cc3)C2=O)cc1 (configuration not stated)	-10.9%
Cc1ccc(NC(=O)CC2S/C(=N/N=C3\NC(=O)CS3)NC2=O)cc1 (configuration not stated)	-0.7%
Cc1nc(-c2coc3cc(OCC(=O)O)ccc3c2=O)cs1	-4.8%
Cc1cc(NC(=O)CSc2nc3c([nH]c4ccccc43)c(=O)n2-c2ccc([N+](=O)[O-])cc2)no1	0.2%
COc1ccc(Nc2nc(Nc3ccc(OC)cc3)c3nccnc3n2)cc1	8.8%
CCOc1ccc(NC(=O)NC2CC(=O)N(c3ccc(C)c(C)c3)C2)cc1 (configuration not stated)	4.9%
COC(=O)Cn1c(=O)c2c(nc3n(-c4ccc(C)cc4)c(C)cn23)n(C)c1=O	-2.5%
CCN(CC)c1ccc(/C=N/NC(=O)CNC(=O)c2cccc([N+](=O)[O-])c2C)cc1	8.0%
COc1ccc(C)c2sc(N3CCCC3)nc12	-1.0%
COc1ccc2nc(-c3cccc(NC(=O)c4ccc(F)cc4)c3)cn2n1	0.8%
N#CC1=C(SCC(=O)Nc2ccccc2)NC(=O)CC1c1cccc([N+](=O)[O-])c1 (configuration not stated)	-7.4%
CC1=NN(Cc2ccccc2)c2nc3c(c(=O)n(Cc4ccccc4)c(=O)n3C)n2C1C (configuration not stated)	-4.7%
O=C(NNc1ncnc2c1cnn2-c1ccc(F)cc1)c1ccccc1Cl	3.5%
CC(=O)N=c1sccn1CC(=O)c1ccc([N+](=O)[O-])cc1	4.8%
O=C(CSc1ccccc1)Nc1nnc(-c2ccncc2)o1	7.2%
Cc1ccc(C(=O)Nc2c(C(N)=O)oc3ccccc23)cc1	-6.2%
Cc1nc2sc(C(c3ccc(F)c(F)c3)N3CC(C)CC(C)C3)c(O)n2n1 (configuration not stated)	4.8%
Cc1ccc2cc(CCNC(=S)NCCn3ccc4ccccc43)c(=O)[nH]c2c1C	8.9%
NC1=NC(=O)C(CC(=O)Nc2ccc([N+](=O)[O-])cc2)S1 (configuration not stated)	-12.2%
CCOC(=O)c1ccc(NC(=O)CCN2C(=O)/C(=C\c3ccccc3OC)SC2=S)cc1	-7.5%

# Carrying on:
Compound	Mtb H37Rv
CCC(CC)C(=O)NCCc1cc2ccc(C)c(C)c2[nH]c1=O	0.2%
NC(=O)c1c(NC(=O)C2CCCO2)sc2c1CCCC2 (configuration not stated)	-2.0%
O=C(Nc1ccccc1-c1nc2ccccc2[nH]1)c1cc(=O)c2ccccc2o1	3.7%
O=C(NCc1cccs1)NC1CC(=O)N(c2cccc(F)c2)C1 (configuration not stated)	2.6%
Cc1cc(O)ccc1Nc1nnc(C)c(=O)[nH]1	-6.7%
COc1ccc(CCC(=O)Nc2c(C(=O)Nc3ccc4c(c3)OCO4)oc3ccccc23)cc1	-2.4%
COc1ccc(S(=O)(=O)Nc2nc(CC(=O)NCc3cccs3)cs2)cc1	-5.4%
Cc1ccc(C)c2[nH]c(=O)c(CCNC(=O)c3cccc(Cl)c3)cc12	-10.7%
Cc1ccc(-c2nnc(NC(=O)c3ccccc3Cl)o2)cc1C	16.5%
N#Cc1ccccc1NC(=O)C1COc2ccccc2O1 (configuration not stated)	24.5%
COc1ccccc1Nc1nc2ccc(F)cc2s1	80.4%
Cc1cn2c3c(=O)[nH]c(=O)n(C)c3nc2n1CCCN1CCc2ccccc2C1	8.1%
CCc1nnc(NC(=O)c2c(F)cccc2Cl)s1	-6.5%
O=C1c2oc3ccc(F)cc3c(=O)c2C(c2cccnc2)N1c1ccccn1 (configuration not stated)	-2.4%
O=C(CSc1ccc2nnc(-c3cccnc3)n2n1)Nc1ccc(F)cc1F	-8.0%
Cc1ccc2nc(NC(=O)CSc3nnc4ccc(-c5cccnc5)nn34)sc2c1	10.8%
O=C(c1ccco1)N1CCN(c2ccc(N3CCOCC3)nn2)CC1	-15.2%
Cc1cc(NCCCn2ccnc2)n2ncc(-c3ccccc3)c2n1	3.12µg/mL*
CCOC(=O)c1nn(-c2ccc(C)cc2)c(=O)c2c(NC(=O)CC(C)(C)C)scc12	-9.9%
COc1cc(/C=C/C(=O)Nc2nnc(-c3ccc(Cl)cc3)s2)cc(OC)c1OC	-4.8%

# Brought forward from above: 2 compounds, then new ones.
Compound	Mtb H37Rv
CCOC(=O)c1nn(-c2ccc(C)cc2)c(=O)c2c(NC(=O)CC(C)(C)C)scc12	-9.9%
COc1cc(/C=C/C(=O)Nc2nnc(-c3ccc(Cl)cc3)s2)cc(OC)c1OC	-4.8%
CC(=O)N(C)c1ccc(OCC(O)CN2CCN(c3ccccn3)CC2)cc1 (configuration not stated)	-7.4%
CCOc1ccc(-c2nc(C(N)=O)c3[nH]c(=O)n(-c4ccccc4F)c3n2)cc1	-4.2%
CC(C(=O)Nc1cccc([N+](=O)[O-])c1)N1C(=O)c2ccccc2S1(=O)=O (configuration not stated)	-14.3%
N#Cc1ccc(Cl)cc1NS(=O)(=O)c1cc2c3c(c1)CCC(=O)N3CCC2	-4.2%
O=C(CSc1nc2c(c(=O)n1-c1ccc(Cl)cc1)SCC2)NCc1ccc(F)cc1	28.2%
COc1ccc(C2NC(=O)NC(C)=C2C(=O)OC2CCCCC2)cc1 (configuration not stated)	17.0%
O=C1CC(Nc2ccc(N3CCOCC3)cc2)C(=O)N1c1ccccc1C(F)(F)F (configuration not stated)	-4.3%
Oc1cc2c(cc1O)C(c1cccnc1)NCC2 (configuration not stated)	-3.0%
COc1ccccc1NC(=O)c1oc2ccccc2c1NC(=O)CCCc1ccccc1	-1.5%
Cn1c(=O)[nH]c(=O)c2c1nc(N1CCN(Cc3ccc(Cl)cc3Cl)CC1)n2Cc1ccccc1	7.3%
COc1ccc(Nc2c3c4c(cccc4n(C)c2=O)C(=O)c2ccccc2-3)cc1	9.7%
Cc1ccc(CNC(=O)CSc2nc(N)c(NC(=O)c3ccc(F)c(F)c3)c(=O)[nH]2)cc1	-3.4%
Cc1nc2c(ccc3nc(NC(=O)c4ccc5ccccc5c4)sc32)s1	2.4%
CCOc1ccc(C(=O)Nc2nnc(-c3cc(OC)c(OC)c(OC)c3)o2)cc1	-2.5%
CCc1ccc(-c2ccc(SCC(N)=O)nn2)cc1	4.66µg/mL*
CCOc1ccc(CC(=O)NCCc2cc3cc(C)c(C)cc3[nH]c2=O)cc1	-2.1%
Cc1cc2c(c(=O)n1CCO)C(c1cccc(Cl)c1)C(C#N)=C(N)O2 (configuration not stated)	-17.6%
O=C(CSc1ccc2nnc(-c3cccc(F)c3)n2n1)Nc1ccccc1F	-6.6%
Cc1ccc2cc(/C=N/Nc3nc(-c4ccccc4)c4cc(Cl)ccc4n3)c(Cl)nc2c1	1.9%
Cc1ccc(S(=O)(=O)Nc2ccccc2C(=O)Nc2nnc(-c3ccccc3Cl)o2)cc1	-5.8%

# (next part)
Compound	Mtb H37Rv
Cc1ccccc1NC(=O)c1ccc(Nc2nc(-c3ccccc3)c3cc(Br)ccc3n2)cc1	11.8%
CCOC(=O)c1nn(-c2ccc(Cl)cc2)c(=O)c2c(NC(=O)c3ccccc3[N+](=O)[O-])scc12	-0.9%
COc1ccc(OCC(=O)Nc2ccc(I)cc2C)cc1	3.2µg/mL*
COc1ccc(C(=O)Nc2c(N)nc(SCC(=O)N3CCc4ccccc43)[nH]c2=O)cc1OC	-4.5%
O=C(CSc1nnc2ccc(-c3ccccc3)nn12)Nc1ccc([N+](=O)[O-])cc1	2.1%
COc1ccc(CC(=O)NCCc2cc3ccc(C)c(C)c3[nH]c2=O)cc1	-3.9%
CS(=O)(=O)c1ccc(Sc2cccc3cccnc23)c([N+](=O)[O-])c1	-7.5%
Cc1nnc(SCC(=O)N2CCCC2)n(N)c1=O	78.7%
CC(=O)N1N=C(c2cccc(O)c2)CC1c1cccs1 (configuration not stated)	-4.1%
O=C1C(Cl)=C(NCC2CCCO2)C(=O)N1c1cc(Cl)ccc1Cl (configuration not stated)	32.9%
COc1ccc(C(=O)NC(NC(=O)c2ccc(OC)cc2)c2ccc(F)cc2)cc1	-6.7%
Cn1c(=O)[nH]c(=O)c2c1nc(N1CCN(c3ccccc3)CC1)n2CCSc1nc2ccccc2o1	11.2%
CC(=C/c1ccccc1)/C=N/n1c(C)n[nH]c1=S	15.5%
COc1cc(C(=O)NCCc2cc3cc(C)c(C)cc3[nH]c2=O)cc(OC)c1OC	1.5%
Cn1c(=O)[nH]c(=O)c2c1nc(NC(Cc1ccccc1)C(=O)O)n2CC(O)COc1ccccc1 (configuration not stated)	8.8%
CCC(=O)Nc1c(C(=O)Nc2ccc(CC)cc2)oc2ccccc12	2.7%
CC1=C(C(=O)OCc2ccccc2)C(c2cccc(F)c2)NC(=O)N1 (configuration not stated)	8.2%
COc1ccc(C(=O)Nc2nc3c(cc4c5c(cccc53)CC4)s2)c(OC)c1	-5.3%
COc1cc(/C=C2/SC(=Nc3ccc(C)cc3)NC2=O)cc(OC)c1OC	9.6%
N#Cc1c(N)n(CCc2ccccc2)c2nc3ccccc3nc12	37.4%

# (further entries)
Compound	Mtb H37Rv
Cc1c(C=O)c(C=O)c(C)n1Cc1ccc(C(=O)O)cc1	-1.7%
CCOc1ccc(/C(O)=C2\C(=O)C(=O)N(Cc3cccnc3)C2c2ccccn2)cc1 (configuration not stated)	-47.0%
CC1CCCN(c2nc3c(c(=O)[nH]c(=O)n3C)n2CCCc2ccccc2)C1 (configuration not stated)	13.1%
O=C(Nc1nc2c(ccc3ccccc32)s1)c1ccc(N2C(=O)CCC2=O)cc1	54.3%
Cc1ccc(C)c(Nc2nc(Nc3ccc(F)cc3)nc3nccnc23)c1	6.4%
O=C(CSc1nc2c(c(=O)n1-c1ccccc1)SCC2)Nc1ccc(Cl)cc1	10.4%
O=c1[nH]ncc(N/N=C\c2cccs2)c1Br	-1.7%
COCCn1c(C)cc(O)c(C(c2cccnc2)N2CCC(Cc3ccccc3)CC2)c1=O (configuration not stated)	-5.3%
C/C(=N\Nc1nc2c(c(=O)[nH]c(=O)n2C)n1CC(C)C)c1ccccc1O	-3.5%
COc1ccc(-c2nnc3ccc(SCC(=O)Nc4ccc(C)cc4C)nn23)cc1	-1.5%
CCOc1ccccc1C(=O)Nc1cc(C)c2c(=O)oc3ccccc3c2n1	6.7%

# Entries listed so far that have a nitro group on carbon, in the order listed:
Compound	Mtb H37Rv
O=C(CSc1ccc(Cl)cc1)Nc1nnc(-c2cccc([N+](=O)[O-])c2)s1	19.4%
Cc1cc(OC(=O)c2ccc(S(=O)(=O)N3CCOCC3)cc2)c([N+](=O)[O-])c(=O)[nH]1	1.5%
Cc1cc(NC(=O)CSc2nc3c([nH]c4ccccc43)c(=O)n2-c2ccc([N+](=O)[O-])cc2)no1	0.2%
CCN(CC)c1ccc(/C=N/NC(=O)CNC(=O)c2cccc([N+](=O)[O-])c2C)cc1	8.0%
N#CC1=C(SCC(=O)Nc2ccccc2)NC(=O)CC1c1cccc([N+](=O)[O-])c1 (configuration not stated)	-7.4%
CC(=O)N=c1sccn1CC(=O)c1ccc([N+](=O)[O-])cc1	4.8%
NC1=NC(=O)C(CC(=O)Nc2ccc([N+](=O)[O-])cc2)S1 (configuration not stated)	-12.2%
CC(C(=O)Nc1cccc([N+](=O)[O-])c1)N1C(=O)c2ccccc2S1(=O)=O (configuration not stated)	-14.3%
CCOC(=O)c1nn(-c2ccc(Cl)cc2)c(=O)c2c(NC(=O)c3ccccc3[N+](=O)[O-])scc12	-0.9%
O=C(CSc1nnc2ccc(-c3ccccc3)nn12)Nc1ccc([N+](=O)[O-])cc1	2.1%
CS(=O)(=O)c1ccc(Sc2cccc3cccnc23)c([N+](=O)[O-])c1	-7.5%
